# V. cholerae motility – Vibrio cholerae motility inhibitors, OD read-out (AID 588778); 10,000 tested, under 10 active; one-dose inhibition, %; IC50 in µg/mL for titrated hits; Vibrio cholerae motility, OD read-out; higher % means a stronger effect; test concentration not given here; primary cut-off and reference of the scale not given here; strong numbers were not always called active; in the data active = confirmed in a dose series
# V. cholerae motility viability – also measured in V. cholerae motility; calls as there; inhibition, %; measured here: bacterial viability at 10 ug/mL;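 higher means fewer living bacteria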
# The depositor's hits bear a star. Only part of the results is shown, so the mix of outcomes need not match the whole.
SMILES,V. cholerae motility,V. cholerae motility viability
Cc1c(Cl)ccc(NC(=O)Cc2ccc(F)cc2)c1Cl,-34%,-12
O=C(COc1cc(=O)n2c(n1)SCCC2)c1ccccc1,2%,2
CNS(=O)(=O)c1c(C)c(C)cc(C)c1C,1%,-3
CS(=O)(=O)Nc1cccc(C2=NN(C(=O)c3ccco3)C(c3cccs3)C2)c1 (centres undefined),13%,3
C#CCOc1c(Br)cc(/C=C/[N+](=O)[O-])cc1OC,34%,7
Clc1ccc(OCCCNCc2ccccc2)c2ccccc12,100%,99
NC(=S)N1CCN=C1c1ccccc1,-2%,-13
C=CCNC(=S)N(Cc1cccs1)C1CCS(=O)(=O)C1 (centres undefined),9%,0
CC(NC(=O)c1ccc(Br)s1)c1ccncc1 (centres undefined),14%,-3
OCCNC/C=C/c1c(F)c(F)c(F)c(F)c1F,8%,2
Cc1c(NC(=O)C(=O)c2c(-c3ccccc3)cc3ccccn23)c(=O)n(-c2ccccc2)n1C,-7%,17
Cc1cc(C)nc(SCc2nnc(Nc3ccc(S(N)(=O)=O)cc3)s2)n1,3%,-3
COC(=O)c1cn(C(=O)OC)c2ccccc12,-6%,-6
COc1ccc(OC)c(NC(=O)CN2CCN(c3ccccn3)CC2)c1,3%,7
Nc1ccc(Oc2ccc3nc4c(nc3c2)-c2cccc3cccc-4c23)cc1,8%,29
COC(=O)c1sc(NC(=O)c2ccoc2C)nc1C,-7%,-5
O=C(O)c1cccnc1C(=O)Nc1nc2ccccc2s1,-10%,-2
COC(=O)c1ccccc1NC(=O)N1CCN(C/C=C/c2ccccc2)CC1,4%,9
Cc1cc(OCC(=O)NCC2CCCO2)cc(C)c1Br (centres undefined),6%,1
CCOc1ccc(C(=O)NC(=S)Nc2cc(Cl)c(Cl)cc2Cl)cc1Br,-11%,2
N#Cc1cccc(NC(=O)c2ccc(I)cc2)c1,12%,-4
CCOC(=O)Cn1cc(C(=O)c2ccccc2F)c2ccccc21,6%,0
CCOC(=O)CNC(=O)c1cc2c(s1)CCC(CC)C2 (centres undefined),14%,1
Nc1nncn1C(=O)CCCOc1ccccc1,0%,-5
O=C(Nc1ccccc1)Nc1nnc(-c2ccccc2I)s1,0%,-2
N#Cc1ccc(C(=O)Nc2cccc(NC(=O)c3ccco3)c2)c(F)c1,14%,-5
Cc1c(NC(=O)c2cc(-c3ccc4c(c3)OCO4)nc3ccccc23)c(=O)n(-c2ccccc2)n1C,10%,-1
O=C(CS(=O)(=O)c1ccccc1)Nc1ccc(Cl)cn1,2%,-4
O=C(N1CCOCC1)C(F)(F)C(F)(F)C(F)(F)F,4%,2
O=C(COc1ccccc1)Nc1nn[nH]n1,-3%,1
CCNc1nc(NCC)nc(OCCNS(=O)(=O)c2cc(C)ccc2C)n1,-25%,-6
Cc1c(NC(=O)c2ncn[nH]2)cccc1-c1nc2cc(Cl)ccc2o1,-18%,-3
CCOc1ccccc1N1CCN(C(=O)Cc2ccccc2)CC1,-1%,29
CCOc1ccc2c(c1)sc1nc(C(=O)OC)cc(=O)n12,7%,-8
CC(C)C(=O)N1CCN(c2ccccc2NC(=O)c2ccc([N+](=O)[O-])o2)CC1,2%,3
OC(CNCC#Cc1ccccc1)c1ccccc1 (centres undefined),19%,19
Cn1ccnc1SCC(=O)N1CCc2ccccc21,9%,6
O=C(Cc1cccc2ccccc12)NC1CC1,-2%,-2
COC(=O)c1cc(OC)c(OC)cc1NC(=O)N1c2ccccc2Sc2ccccc21,-24%,-5
CCc1cc(=O)oc2cc(Oc3ccc([N+](=O)[O-])cc3C(F)(F)F)c(Cl)cc12,5%,-1
Cc1ccc(Cn2cnc([N+](=O)[O-])n2)cc1,-9%,5
O=C1C2C(C(=O)N1c1nccs1)C1c3ccccc3C2C2C=CC=CC21 (centres undefined),16%,28
Cc1nnc(SCC(=O)N/N=C/c2cn(-c3ccccc3)nc2-c2ccccc2)n1-c1ccccc1,-20%,-5
COc1ccc(CCNC(=S)NNC(=O)c2ccc(-n3cccc3)cc2)cc1OC,12%,5
COc1ccc(CCNC(=S)NCc2cc(C)n(C)n2)cc1OC,-22%,-5
O=C1c2cccnc2C(=O)N1Cc1ccco1,31%,15
CN1CCN(C(CC(=O)Nc2cccc([N+](=O)[O-])c2)C(=O)O)CC1 (centres undefined),-13%,-7
COc1ccc(C2=NN(C(=O)CCC(=O)O)C(c3cccc([N+](=O)[O-])c3)C2)cc1 (centres undefined),-1%,1
CC(=O)Nc1nc2ccc(SC#N)cc2s1,57%,14
COc1ccc(NC(=O)NCc2ccccn2)cc1OC,-2%,-2
CC(C(=O)NCCc1ccccc1F)N1C(=O)c2ccccc2C1=O (centres undefined),10%,6
Cc1c(Cl)cccc1NC(=O)NC(=O)C(F)(F)F,13%,18
CC1Cc2ccccc2N1C(=O)c1cnsn1 (centres undefined),2%,-7
CC1(C)CC2CC(C)(CN2C(=O)Nc2ccccc2)C1 (centres undefined),4%,-1
Cc1cccnc1NCC(O)COc1ccccc1 (centres undefined),4%,-1
Cc1ccc(NC(=S)NCCc2ccccc2)c([N+](=O)[O-])c1,30%,8
CCOC(=O)CC(N)c1ccc(OC)c2ccccc12 (centres undefined),-1%,-4
COc1cc(C=O)cc([N+](=O)[O-])c1OC(C)C,7%,1
Cc1c(NC(=O)c2sc3cc(Cl)ccc3c2Cl)cccc1-c1nc2ncccc2o1,-6%,-2
Cc1ccc(S(=O)(=O)CC2CC2(Cl)Cl)cc1 (centres undefined),3%,3

# Following part
SMILES,V. cholerae motility,V. cholerae motility viability
CCOc1ccc(N(C(C)C(=O)Nc2ccc(F)c(F)c2)S(C)(=O)=O)cc1 (centres undefined),-15%,-8
O=c1cc(NC2CCCCCC2)[nH]c(=O)[nH]1,-10%,-5
CCOc1c(I)cc(/C=C2\C(=O)ON=C2c2ccccc2)cc1OC,12%,2
Cc1ccc(OCCCCn2cncn2)c(I)c1,14%,6
O=C1c2ccccc2C(=O)c2c1nc1n2CCCC1,15%,8
COc1ccc(/C=N/n2cnnc2)cc1COc1ccc(Cl)cc1,-1%,-4
COc1ccc(C(=O)Nc2nc(COc3ccccc3)cs2)cc1OC,1%,4
NC(=O)C1CCN(C(=O)CSc2nc3c(c(-c4ccccc4)n2)CCCC3)CC1,1%,-2
CN1CCN(NC(=O)c2ccc(Cl)s2)CC1,-8%,-1
NS(=O)(=O)c1ccc(CCNCc2cccs2)cc1,15%,1
COc1ccc(Cl)cc1NC(=S)Nc1cccc(C)n1,-27%,-16
CC(=O)OC(C(=O)N1CCN(Cc2ccc3c(c2)OCO3)CC1)c1ccccc1 (centres undefined),13%,22
Cc1cc(C(=O)NCc2cc3ccccc3[nH]2)ccc1[N+](=O)[O-],9%,-2
O=C(CSc1nnc(COc2ccccc2)n1-c1ccccc1)c1cccs1,4%,1
Fc1ccc(Cn2c(-c3cscn3)nc3ccccc32)c(Cl)c1,-9%,-1
Cc1ccc(CNCCNCCO)s1,15%,-5
S=C(NC1CCCC1)N1CCC(Cc2ccccc2)CC1,4%,20
N#C/C(=C\c1cc(Cl)ccc1OCc1c(F)cccc1Cl)c1nn(-c2ccccc2)c(N)c1C#N,-4%,-10
Cc1onc(-c2ccccc2)c1C(=O)N1CCN(c2ccc([N+](=O)[O-])c(N3CCOCC3)c2)CC1,-4%,-8
CS(=O)(=O)c1nncn1-c1ccccc1,-16%,-5
COC(=O)C(CC(C)C)NC(=O)C(Cl)(Cl)Cl (centres undefined),-12%,-7
CN(C(=O)Cc1ccccc1)c1ccccc1[N+](=O)[O-],4%,-3
O=C1CC(N2CCC(O)(c3ccc(Cl)cc3)CC2)C(=O)N1 (centres undefined),16%,33
O=S(=O)(NCC(Sc1ccc(F)cc1)c1ccccc1)c1ccc(Cl)cc1 (centres undefined),-3%,1
CC1CCCCN1C(=O)N1c2ccccc2Sc2ccccc21 (centres undefined),4%,30
O=C(NC1CCCCC1)N1CCN(c2nnc(-c3ccccc3)c3ccccc23)CC1,0%,-8
O=C(O)c1ccc(C2Nc3c(Br)cccc3C3C=CCC32)cc1 (centres undefined),-9%,-4
FC(F)(F)c1nnc2ccc(N3CCCCC3)nn12,-1%,-6
Cc1ccc(-c2nnc(C34CC5CC(CC(C5)C3)C4)o2)cc1,-6%,-5
O=C(c1ccccc1)c1ccc(NC(=O)c2ccccc2F)c(NC(=O)c2ccccc2F)c1,2%,-2
C=CCn1c(SCc2ccc([N+](=O)[O-])cc2)nnc1C(CC(C)C)NC(=O)c1ccccc1Cl (centres undefined),0%,0
C#CCOC(=O)CCCC(=O)Nc1cccc2ccccc12,13%,7
O=C(Nc1cc(-c2nc3ccccc3s2)ccc1Cl)c1cncc(Br)c1,2%,-6
O=C(Nc1nc2ccc(S(=O)(=O)N3CCCC3)cc2s1)C1CCCCC1,-6%,0
O=C(Nc1nc2c(s1)CCc1ccccc1-2)c1cccnc1,3%,-1
O=C(NCCNC1CCC(c2ccccc2)CC1)c1ccc(F)cc1 (centres undefined),29%,10
COc1ccccc1NS(=O)(=O)c1ccc(NC(=S)Nc2cccc(Cl)c2Cl)cc1,6%,1
CC(=O)N1CCn2c3c(c(=O)c4cc(C)ccc42)CCC31 (centres undefined),-10%,-7
CCOC(=O)C1C(=O)NC(N2CCOCC2)=NC1C(C)C (centres undefined),6%,-3
COc1cc(C(=O)Nc2ccc(Oc3ncnc4sc(C)c(C)c34)cc2)cc(OC)c1OC,-14%,-5

# Single records (already shown):
# Results for COC(=O)C(CC(C)C)NC(=O)C(Cl)(Cl)Cl (centres undefined) → V. cholerae motility = -12%; V. cholerae motility viability = -7
# Results for CN(C(=O)Cc1ccccc1)c1ccccc1[N+](=O)[O-] → V. cholerae motility = 4%; V. cholerae motility viability = -3

# Later entries:
SMILES,V. cholerae motility,V. cholerae motility viability
COc1ccc(C(=O)Nc2cccc3nc(C)ccc23)cc1Cl,4%,31
O=C(c1cccc(F)c1)N1CCN(C(=O)C(c2ccccc2)c2ccccc2)CC1,-1%,-5
CC(NC(=O)c1cccc(C(F)(F)F)c1)c1ccc2c(c1)OCO2 (centres undefined),13%,-1
CC(NC(=O)C(F)(F)F)c1ccccc1 (centres undefined),-6%,6
O=C1c2ccccc2S(=O)(=O)N1c1ccccc1I,-10%,-8
CC1(C)Oc2ccc(NC(=O)CCC3CCCC3)cc2O1,16%,6
CCOc1cc2c(cc1OCC)C(c1ccc(OC)c(OC)c1)N(c1ccc(C(=O)O)cc1)C(=O)C2 (centres undefined),-8%,-2
O=[N+]([O-])c1ccccc1N1CCN(C(=S)c2ccccc2O)CC1,-5%,-3
Cc1ccc(Cl)c2c1NC(=O)C2(O)CC(=O)c1ccc(F)cc1 (centres undefined),20%,8
Cc1ccccc1OCC(=O)Nc1ccc(Br)c2cccnc12,-4%,30
COC(=O)c1ccccc1OC(=O)COc1ccc(Cl)cc1Br,-15%,-5
Cc1cc(OCCCCNC2CCCC2)ccc1[N+](=O)[O-],18%,7
Cn1c(CCc2ccccc2)nnc1SCC(=O)N1CCCC1,1%,-5
COc1ccc(OC)c(Nc2c([N+](=O)[O-])c(=O)oc3ccccc23)c1,-29%,-7
CCCOc1ccc(CN(C(=O)c2nc(SCC)ncc2Cl)C2CCS(=O)(=O)C2)cc1 (centres undefined),-7%,-3
C=CCNc1nnc(Cc2ccccc2)s1,23%,9
O=C(CN1CCOCC1)Nc1ncc(Cc2ccccc2Cl)s1,-8%,-1
S=C(Nc1cccc2ccccc12)N1CC=C(c2ccccc2)CC1,27%,18
CN(C)S(=O)(=O)N(CC(=O)N(Cc1ccccc1)Cc1ccccc1)c1ccccc1,14%,3
COc1ccc(-n2c(C)ccc2-c2ccccc2)nc1,-7%,-4
COc1ccc(C2(CN)CCOCC2)cc1OC,-1%,-1
O=C(NC1CC1)c1ccc(CN2CCN(c3ccccc3)CC2)cc1,3%,4
CCC(C)N1CCN(Cc2cccc(Br)c2)CC1 (centres undefined),7%,0
Cc1cc(=O)oc2cc(Oc3cc(C#N)c(C#N)cc3-n3nnc4ccccc43)ccc12,-3%,-1
Cc1cc(C)c2nc3nc(C)cc(C)c3c(N)c2c1,118%,28
Clc1ccc(-c2nnc(N3CCCC3)nn2)cc1,-3%,4
COc1ccc(NC(=O)Nc2cc(C(C)(C)C)on2)cc1OC,-10%,6
CC(C)N=C(NS(=O)(=O)c1ccccc1)c1ccccc1,-3%,-2
Clc1ccc(-c2nnc(SCc3nc4ccccc4[nH]3)o2)c(Cl)c1,19%,-6
COc1ccc(C(C)=O)cc1CSCCC#N,35%,0

# A run of entries from further up:
SMILES,V. cholerae motility,V. cholerae motility viability
Cc1cc(OCCCCNC2CCCC2)ccc1[N+](=O)[O-],18%,7
Cn1c(CCc2ccccc2)nnc1SCC(=O)N1CCCC1,1%,-5
COc1ccc(OC)c(Nc2c([N+](=O)[O-])c(=O)oc3ccccc23)c1,-29%,-7
CCCOc1ccc(CN(C(=O)c2nc(SCC)ncc2Cl)C2CCS(=O)(=O)C2)cc1 (centres undefined),-7%,-3
C=CCNc1nnc(Cc2ccccc2)s1,23%,9
O=C(CN1CCOCC1)Nc1ncc(Cc2ccccc2Cl)s1,-8%,-1
S=C(Nc1cccc2ccccc12)N1CC=C(c2ccccc2)CC1,27%,18
CN(C)S(=O)(=O)N(CC(=O)N(Cc1ccccc1)Cc1ccccc1)c1ccccc1,14%,3
COc1ccc(-n2c(C)ccc2-c2ccccc2)nc1,-7%,-4
COc1ccc(C2(CN)CCOCC2)cc1OC,-1%,-1
O=C(NC1CC1)c1ccc(CN2CCN(c3ccccc3)CC2)cc1,3%,4
CCC(C)N1CCN(Cc2cccc(Br)c2)CC1 (centres undefined),7%,0
Cc1cc(=O)oc2cc(Oc3cc(C#N)c(C#N)cc3-n3nnc4ccccc43)ccc12,-3%,-1
Cc1cc(C)c2nc3nc(C)cc(C)c3c(N)c2c1,118%,28
Clc1ccc(-c2nnc(N3CCCC3)nn2)cc1,-3%,4
COc1ccc(NC(=O)Nc2cc(C(C)(C)C)on2)cc1OC,-10%,6
CC(C)N=C(NS(=O)(=O)c1ccccc1)c1ccccc1,-3%,-2
Clc1ccc(-c2nnc(SCc3nc4ccccc4[nH]3)o2)c(Cl)c1,19%,-6
COc1ccc(C(C)=O)cc1CSCCC#N,35%,0
